# Bioassay records from PubChem.
# GIV Gai3 FP = blocks GIV peptide binding to rat Galpha-i3; P08753; Galpha-i3/FITC-GIV peptide fluorescence polarization, 90 min; active compounds read low; scaled: aluminum fluoride 0%, vehicle 100%; percent of control (FP), % (test concentration not listed); actives 0.42% (n = 210,000); AID 1224905;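 active = replicate mean at 85% of control or lower, very high polarization wells dropped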;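 note: lower values mean more displacement of the GIV peptide from Galpha-i3; wells of about 15 µL received 100 nL stock; the first replicate is given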
# Target sequence (P08753 whole entry, looked up): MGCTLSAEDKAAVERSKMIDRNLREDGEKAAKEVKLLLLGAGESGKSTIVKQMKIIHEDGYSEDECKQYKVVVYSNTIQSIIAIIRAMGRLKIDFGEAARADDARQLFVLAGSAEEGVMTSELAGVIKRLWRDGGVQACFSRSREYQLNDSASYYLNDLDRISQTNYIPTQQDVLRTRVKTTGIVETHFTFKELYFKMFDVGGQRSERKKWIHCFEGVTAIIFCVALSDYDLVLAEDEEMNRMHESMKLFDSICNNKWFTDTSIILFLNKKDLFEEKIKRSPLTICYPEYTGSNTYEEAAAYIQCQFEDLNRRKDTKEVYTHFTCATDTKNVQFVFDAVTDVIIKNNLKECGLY
# HCMV UL50-53 inh = inhibitors of HCMV UL50-UL53 nuclear egress complex interaction; HTRF UL50-UL53 interaction, normalized percent inhibition; inhibition, % (no concentration beside the values); actives 0.15% (n = 190,000); AID 1918969;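 active = both replicates at 50% or more, plus weaker picks with an unusually low signal ratio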;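 note: stock transfer was 100 nL into about 20 µL; 0% = negative control wells and 100% = wells with untagged competitor protein; inactives centre near -12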
# Sa growth inh = blocks Staphylococcus aureus growth. AID 720641. S. aureus RN4220 growth, OD600, 20 h, 42 °C; active compounds read low. actives 0.53% (n = 170,000). relative growth, % (no concentration beside the values);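 active = growth at 42 °C up to 50% and 20 or more points under that at 30 °C, or under 10% at both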;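 note: 300 nL library stock went into each well; scaled to the means of positive and negative controls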
# Sa growth inh second temp = further read-out of Sa growth inh, marked with its call; relative growth, %; measured here: growth at 30 °C;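 optical density after 20 h as mean of two plates; 100% = untreated growth and lower means inhibition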
# Numbers without * were called inactive; . = not tested or not shown; & = joins results of further samples. Rows were taken by chance; overall some 0.8% were active at least once.
no.	Structure	GIV Gai3 FP	HCMV UL50-53 inh
1	CCc1cc(=O)oc2cc(C)c3c(-c4ccccc4)coc3c12	106	.
2	CC[C@H]1OC(=O)[C@H](C)[C@@H](O[C@H]2C[C@@](C)(OC)[C@@H](O)[C@H](C)O2)[C@H](C)[C@@H](O[C@@H]2O[C@H](C)C[C@H](N(C)C)[C@H]2O)[C@](C)(O)C[C@@H](C)C(=O)[C@H](C)[C@@H](O)[C@]1(C)O	.	-16&1&-45
3	CC(C)NC(=O)C(C)Oc1ccc(S(N)(=O)=O)cc1 (configuration not stated)	101	-38
4	Cc1cccc(OCc2nc(C)c(C(=O)NC3CCCC3)s2)c1	102	-15
5	Cc1cccc(NC(=O)Cn2c(=O)c(C)nc3ccccc32)c1	98	-33
6	CN1C(=O)N(C)C2CC1N(C)C(=O)N2C	107	-7
7	CCCN(CCC)S(=O)(=O)c1ccc2c(c1)C(=C(C)C)C(=O)N2	108	-18
8	COc1ccc(OC)c(NC(=O)c2c(NCc3ccc(C)o3)sc3c2CCC(C)C3)c1 (configuration not stated)	104	.
9	CN(C)c1nc2c(c(=O)[nH]c(=O)n2C)n1Cc1ccc(Cl)cc1	105	-15
10	CCOC(=O)C1(O)CC(C)=NN1C(=O)c1cccc(Cl)c1 (configuration not stated)	.	5
11	CCOC(=O)c1cc2ccsc2n1CC(=O)Nc1ccc(F)c(Cl)c1	104	-33
12	O=C(Nn1c(-c2cccc(Cl)c2)nc2ccccc2c1=O)c1cc2cc(Br)ccc2oc1=O	109	-7
13	Cc1cccc(Nc2nc(-c3ccc(F)cc3)cs2)n1	.	2
14	Cc1ccc(NC(=O)CCc2nnc3ccc(NC4CCCC4)nn23)cc1	104	.
15	CCCn1c(C)cc(C(=O)COC(=O)c2ccc(S(C)(=O)=O)cc2)c1C	.	-12

no.	Sa growth inh	Sa growth inh second temp
1	69	80
2	-0.9*	-0.6*
3	99	95
4	.	.
5	.	.
6	96	86
7	90	86
8	75	81
9	104	90
10	94	88
11	.	.
12	.	.
13	82	70
14	82	71
15	93	79

# Next section
no.	Structure	GIV Gai3 FP	HCMV UL50-53 inh
16	CC1CCN(C(=O)CCNS(=O)(=O)c2ccc3c(c2)c(=O)n(C)c(=O)n3C)CC1	100	-10
17	Cc1nccc(-c2cccc(N/N=C(\C#N)S(=O)(=O)c3ccccn3)c2)n1	103	-32
18	Cc1nn(CC(=O)NC2CCCCCC2)c(=O)c2nn(-c3ccccc3)c(C)c12	106	-36
19	Cc1cc(C)cc(NC(=O)N2CCN(Cc3nc4cc(C(=O)N(C)C)ccc4n3C)CC2)c1	101	-33
20	COc1ccc(N2CCN(C(=O)c3c(C)oc4ncnc(N5CCCCC5)c34)CC2)cc1	107	.
21	CCN1C(=O)COc2ccc(-c3nc(NC(=O)c4cccnc4)sc3C)cc21	102	15
22	CC(C)c1cc(NC(C)c2ccccc2)n2c(nc3ccccc32)c1C#N (configuration not stated)	103	.
23	Cc1ccc(-c2noc(-c3cc(-c4cc(C)ccc4C)n[nH]3)n2)cc1	107	8
24	O=S(=O)(c1ccccc1)c1nnn2c1nc(NCc1ccc3c(c1)OCO3)c1sccc12	105	16
25	COc1cccc(N2CC(NC(=O)COc3ccc4ccccc4c3)CC2=O)c1 (configuration not stated)	94	.
26	CC(=O)N1C(=O)C2(OCCO2)c2ccccc21	104	6
27	Cn1c(=O)n(C)c2cc(NS(=O)(=O)c3ccc(N4CCCC4=O)cc3)ccc21	98	-10
28	CCN1CCN(CCCNC(=O)CS(=O)(=O)Cc2nc(-c3ccccc3C)oc2C)CC1	103	-10
29	Cc1c(C(=O)Nc2ccc(-n3cnnn3)cc2)nnn1-c1ccc2noc(-c3ccc(Cl)cc3)c2c1	109	-20
30	CCC(C)Nc1cc(C)nc2c(-c3ccc(F)cc3)cnn12 (configuration not stated)	100	-7

no.	Sa growth inh	Sa growth inh second temp
16	96	91
17	95	90
18	97	97
19	.	.
20	114	99
21	.	.
22	102	78
23	.	.
24	.	.
25	119	88
26	101	77
27	.	.
28	96	93
29	.	.
30	.	.

# Next compounds.
no.	Structure	GIV Gai3 FP	HCMV UL50-53 inh
31	O=c1c2ccccc2c(-c2nc(-c3ccc4c(c3)OCO4)no2)nn1-c1ccccc1	112	5
32	O=C1CCCN1CCCNc1ccc2nnc(CCC(=O)N3CCCCC3)n2n1	107	4
33	COc1ccc(C(=O)C(C(c2ccccc2)N2CCOCC2)N2CCOCC2)cc1 (configuration not stated)	.	-15
34	CCOc1ccc2c(c1)s/c(=N/C(=O)Nc1ccc(OC)cc1)n2C	106	-6
35	CC1=C(C(=O)Nc2ccccn2)C(c2cccc(Oc3ccccc3)c2)C2=C(CC(C)(C)CC2=O)N1 (configuration not stated)	102	-10
36	Cn1nc(C(C)(C)C)cc1C(=O)Nc1ccccc1	99	-4
37	CCOC(=O)c1c(NC(=O)c2cc3nc(-c4ccc(OC)cc4)cc(C(F)(F)F)n3n2)sc(C)c1C	100	.
38	CCOC(=O)c1c(C)oc2cc(Br)c(O)c(CN(C)C)c12	106	8
39	COc1cc(-c2cc(C#N)on2)ccc1OCc1ccccc1	.	-5
40	OC1CCCc2ccccc21 (configuration not stated)	.	-11
41	COc1ccc(NC(=O)c2nc3nc(C)cc(C(F)F)n3n2)c(C)c1	101	8
42	CC(C)(C)C(=O)N1CCC(n2nc(-c3ccccc3)oc2=O)CC1	99	-21
43	CCCn1c2ccccc2c2cnn(CC(=O)N(C)c3ccccc3CC)c(=O)c21	108	.
44	CCOc1ccccc1NC(=O)CCNS(=O)(=O)c1ccc2c(c1)CCN2C(=O)C1CC1	99	.
45	CCn1cc(C(=O)NCC(OC)OC)c(=O)c2cc(S(=O)(=O)N3CCCC3)ccc21	102	.

no.	Sa growth inh	Sa growth inh second temp
31	.	.
32	104	106
33	105	106
34	115	112
35	.	.
36	107	100
37	107	92
38	97	93
39	94	87
40	115	102
41	83	94
42	.	.
43	82	83
44	99	82
45	106	97

# The results go on:
no.	Structure	GIV Gai3 FP	HCMV UL50-53 inh
46	COC(=O)c1c(-c2ccc(Cl)cc2)noc1N1CCN(c2ccc(F)cc2)CC1	108	.
47	O=C1CSC(=O)N1CCN=Cc1c(O)n(Cc2ccccc2)c(=O)c2ccccc12	.	-28
48	c1ccc(C2=Nn3c(nnc3-c3cnccn3)SC2)cc1	104	-10
49	CNC(=S)Nc1cccc(C(=O)OC)c1	107	-22
50	COc1ccc(-c2nc3ccccc3c(=O)n2OC(=O)/C=C/c2ccc(Cl)cc2)cc1OC	99	-26
51	CCCn1c(-c2ccc(F)cc2)cnc1SCC(=O)N1CCCCC1C (configuration not stated)	104	6
52	CCOc1ccc(C(=O)NC2CCCCC2)cc1	.	7
53	CCC(CC)NC(=O)c1cccc(OC)c1OC	99	-6
54	O=C(O)c1cnc(N2CCCC(CN3CCCC3)C2)c(NS(=O)(=O)c2cc(F)ccc2F)c1 (configuration not stated)	104	-23
55	Cc1cccc(OCc2nc(C)c(C(=O)Nc3nnc(C(C)C)s3)s2)c1	108	-19
56	CN(C)/N=C/c1cn(-c2ccccc2)nc1-c1cccnc1	.	-18
57	COc1ccc(CCNC(=O)Cc2c(C)c3cc(OC)c(OC)cc3oc2=O)cc1	96	-28
58	Cc1ccc(CNC(=O)c2oc3ccc4c(c3c2C)C(=O)CC(C)(C)O4)cc1	96	5
59	CCSc1nc2c(c(=O)[nH]1)C(C(C)C)C(C#N)=C(N)O2 (configuration not stated)	94	.
60	CCC(C)NC(=O)c1cc2cc3ccc(C)cc3nc2s1 (configuration not stated)	103	-28

no.	Sa growth inh	Sa growth inh second temp
46	96	89
47	130	107
48	86	95
49	97	83
50	.	.
51	103	97
52	113	91
53	103	103
54	.	.
55	.	.
56	64	67
57	88	86
58	99	93
59	102	84
60	.	.

# (list continues)
no.	Structure	GIV Gai3 FP	HCMV UL50-53 inh
61	CC(=O)Nc1cc(C)nn1C	105	5
62	Cc1cccc(CNC(=O)C2CCCN(S(=O)(=O)N3CCC(C)CC3)C2)c1 (configuration not stated)	100	14
63	CCCCc1c(O)cc(-c2ccccc2)n(Cc2ccccc2)c1=O	98	-14
64	CC(C)(C)c1ccc(-c2noc(-c3ccc4c(c3)CCO4)n2)cc1	107	-3
65	COc1ccc(NC(=O)Cn2cnc3c(nc4n3CCCCC4)c2=O)c(OC)c1	110	.
66	COc1cc(C(F)(F)F)nc2ccc(C#CCOC(=O)c3ccccc3)cc12	107	-29
67	CC(OC(=O)c1ccc2c(c1)S(=O)(=O)N=C1CCCCCN12)C(=O)NC1CC1 (configuration not stated)	.	18
68	COc1ccc(C2NC(CC(C)C)(C(=O)O)C3C(=O)N(c4ccccc4OC)C(=O)C23)cc1 (configuration not stated)	106	.
69	Cc1ccc(-n2nc(N3CCCN(C(=O)NC4CCCC4)CC3)ccc2=O)cc1C	97	-46
70	COC(=O)Cc1[nH]n(-c2ccccc2)c(=O)c1C=Nc1ccc(C)cc1	100	.
71	CCn1cc(CCCC(=O)NCCC2=CCCCC2)c2ccccc21	108	.
72	Cc1nn(-c2ccccc2)c2c1C(C(=O)NC1CCCC1)N(Cc1ccc(Cl)cc1)C(=O)CS2 (configuration not stated)	102	-25
73	CCN(CC)C(=O)CSc1nc2ccccc2c(=O)n1Cc1ccco1	102	.
74	COc1ccccc1NC(=O)c1c(NCc2ccc(C)o2)sc2c1CCCCC2	131	.
75	CCOc1ccc2c(c1)SC1=NC(C(F)(F)F)(C(F)(F)F)NC(=O)N12	100	.

no.	Sa growth inh	Sa growth inh second temp
61	114	94
62	.	.
63	100	85
64	105	91
65	91	94
66	104	89
67	96	102
68	104	93
69	.	.
70	116	101
71	133	98
72	.	.
73	95	88
74	82	70
75	90	93

# Remaining list, next part
no.	Structure	GIV Gai3 FP	HCMV UL50-53 inh
76	CCN1CCN(c2cc(C(C)(C)C)nc3c(-c4ccc(F)cc4)c(C)nn23)CC1	94	-18
77	CC(C)S(=O)(=O)/C(C#N)=C/Nc1ncccn1	117	-17
78	O=C(NCc1cccc(Cl)c1)c1oc(=O)c2ccccc2c1-c1ccccc1	102	-38
79	COc1ccc(-c2oc3ncn4nc(-c5ccccc5Br)nc4c3c2-c2ccc(OC)cc2)cc1	110	-57
80	COc1ccc(C(=O)CN2CCCc3cc(C)ccc32)cc1	124	-60
81	Cc1cc(CC(=O)O)n(C)c1C(=O)c1ccc(Cl)cc1	.	-39&-30
82	Cn1c(=N)n(CC(=O)C23CC4CC(CC(C4)C2)C3)c2ccccc21	.	-2
83	COc1cccc(C(=O)Nc2nc(-c3nnn(-c4ccccc4C(F)(F)F)c3C)ns2)c1	101	.
84	Cc1cc(C)cc(CC(C(=O)O)C(C)C(=O)Nc2cccc(C(F)(F)F)c2)c1 (configuration not stated)	106	.
85	COc1ccc(/C=[N+](\C)[O-])c(OC)c1	.	-42
86	COc1ccc(CN2C(=O)c3oc4ccccc4c(=O)c3C2c2ccc(O)c(OC)c2)cc1 (configuration not stated)	104	.
87	CCOC(=O)c1c(CSc2ccsc2)n(C)c2cc(Br)c(O)c(CN(C)C)c12	107	-36
88	CN(C)c1nc(SCC(N)=O)nc(N(C)C)n1	105	-3
89	CC(Oc1ccc(F)cc1)C(=O)NCc1ccncc1 (configuration not stated)	.	-15
90	COc1ccccc1OCCn1c(NC(=O)c2ccc(Cl)cc2)nc2ccccc21	108	-9
91	O=C(NCCN1CCCC1)c1ccc(Cl)cc1	107	12

no.	Sa growth inh	Sa growth inh second temp
76	.	.
77	110	91
78	105	89
79	103	89
80	87	59
81	95	90
82	100	61
83	94	88
84	98	64
85	103	95
86	120	85
87	91	51
88	111	100
89	96	89
90	100	90
91	85	104

# Quoted at random: 3 records from the list
no.	Structure	GIV Gai3 FP	HCMV UL50-53 inh
87	CCOC(=O)c1c(CSc2ccsc2)n(C)c2cc(Br)c(O)c(CN(C)C)c12	107	-36
89	CC(Oc1ccc(F)cc1)C(=O)NCc1ccncc1 (configuration not stated)	.	-15
85	COc1ccc(/C=[N+](\C)[O-])c(OC)c1	.	-42

no.	Sa growth inh	Sa growth inh second temp
87	91	51
89	96	89
85	103	95

# A draw from above in order of molecular weight, smallest number first:
no.	Structure	GIV Gai3 FP	HCMV UL50-53 inh
85	COc1ccc(/C=[N+](\C)[O-])c(OC)c1	.	-42
77	CC(C)S(=O)(=O)/C(C#N)=C/Nc1ncccn1	117	-17
89	CC(Oc1ccc(F)cc1)C(=O)NCc1ccncc1 (configuration not stated)	.	-15
81	Cc1cc(CC(=O)O)n(C)c1C(=O)c1ccc(Cl)cc1	.	-39&-30
90	COc1ccccc1OCCn1c(NC(=O)c2ccc(Cl)cc2)nc2ccccc21	108	-9

no.	Sa growth inh	Sa growth inh second temp
85	103	95
77	110	91
89	96	89
81	95	90
90	100	90
